Source: PubChem BioAssay
FPR = small-molecule ligands of human FPR – U937-FPR cells, fMLFK-FITC, flow cytometry, primary screen (AID 362). U937-FPR cells, fMLFK-FITC displacement, flow cytometry; active compounds read high; test concentration not given here; most inactive calls were filed without a number and no value below 0 was filed. inhibition, %. 4,300 tested, 1% active;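 active = inhibition of labelled peptide binding to the formyl peptide receptor of at least 65%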;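 also: plate controls were buffer control wells for no effect and unlabeled fMLFF blocking peptide for full effect; higher means less cell fluorescence so more probe displaced; part of the set was picked by virtual screening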
Active calls of the source: *; i = inactive. The list is partial, so the mix of outcomes need not match the whole.

SMILES | FPR
CC(C)c1ccccc1Oc1c(C(F)(F)F)oc2c(CN3CCN(C)CC3)c(O)ccc2c1=O | 39
CCOC(=O)NC1(C(F)(F)F)C(=O)Nc2c1c(=O)[nH]c(=O)n2CCc1ccccc1 (configuration not stated) | 23
CC(=O)Nc1ccc(S(=O)(=O)NCC2CCC(C(=O)NCc3cccnc3)CC2)cc1 (configuration not stated) | i
COc1ccc(C2NC(=O)NC(C)=C2C(=O)OCC2CCCCC2)cc1OC (configuration not stated) | i
Cc1c(C(C)C)c(N2CCN(C)CC2)n2c(nc3ccccc32)c1C#N | 1
COc1cc(C2OCC3(COC(C)=O)C(C)C=C(C)C2C3C)ccc1OC(C)=O (configuration not stated) | i
CCOC(=O)C(C(C)CC)N(CCC(C)C)S(=O)(=O)c1ccc(F)cc1 (configuration not stated) | 7
CCc1cc2c3c(c(=O)oc2cc1OCc1cc(C(=O)O)oc1C)CCCC3 | i
Cc1cc(C2C(C#N)=C(N)N(c3ncn[nH]3)C3=C2C(=O)CC(C)(C)C3)c(C)s1 (configuration not stated) | i
CSc1sc(C)cc1C1C(C#N)=C(N)N(c2ccccc2[N+](=O)[O-])C2=C1C(=O)CC(C)(C)C2 (configuration not stated) | i
CC(C)CN(CC(C)C)S(=O)(=O)N1CCC(C(=O)NCc2ccc(F)cc2)CC1 | i
O=C(N1CCCCC1)C12CC3CC(C1)CC(C(=O)N1CCCCC1)(C3)C2 | 0

Four compounds from above, sorted by the value under FPR, largest number first:
SMILES | FPR
CC(C)c1ccccc1Oc1c(C(F)(F)F)oc2c(CN3CCN(C)CC3)c(O)ccc2c1=O | 39
CCOC(=O)NC1(C(F)(F)F)C(=O)Nc2c1c(=O)[nH]c(=O)n2CCc1ccccc1 (configuration not stated) | 23
Cc1c(C(C)C)c(N2CCN(C)CC2)n2c(nc3ccccc32)c1C#N | 1
O=C(N1CCCCC1)C12CC3CC(C1)CC(C(=O)N1CCCCC1)(C3)C2 | 0

(cont.)
SMILES | FPR
CC(C)Cn1cc(C(=O)NC2CC2)c2c3ccccc3n(C)c2c1=O | i
CCC(C)C(NC(=O)C(CC(C)C)NC(=O)OCc1ccccc1)C(=O)NN1S(=O)(=O)c2ccccc2S1(=O)=O (configuration not stated) | 42
CCCc1cc(=O)oc2cc(C)cc(OCC(=O)C(C)(C)C)c12 | i
CCOc1ccc(C2NC(=O)NC(C)=C2C(=O)OCC(F)(F)F)cc1 (configuration not stated) | 8
Cc1cccc(N2CCN(C(=O)c3cn(CC(C)C)c(=O)c4c3c3ccccc3n4C)CC2)c1C | i
COC(=O)C(NC(=O)C(CCCCNC(=O)OCc1ccccc1)NC(=O)C(Cc1c[nH]c2ccccc12)NC(=O)OC(C)(C)C)C(C)O (configuration not stated) | 3
CCC(C)OC(=O)C1=C(C)NC2=C(C(=O)C(C(=O)OC)C(C)C2)C1c1ccc(C(F)(F)F)cc1 (configuration not stated) | i
CCOC(=O)C(CC)Oc1ccc2c(=O)c(-c3ccccc3OC)c(C(F)(F)F)oc2c1 (configuration not stated) | i
O=C(COC(=O)c1cccc(N2C(=O)C3C4CCC(C4)C3C2=O)c1)c1ccc(Br)cc1 (configuration not stated) | 57
O=C1C2C3C=CC(C3)C2C(=O)N1c1ccc(NCCc2cccc(F)c2)c([N+](=O)[O-])c1 (configuration not stated) | i
CC1(C)CC(=O)C2=C(C1)OC(N)=C(C#N)C2c1ccc(OC(=O)N2CCOCC2)cc1 (configuration not stated) | i
CC(=O)N1CCc2cc(S(=O)(=O)NC(C(=O)Nc3ccc(C)cc3)C(C)C)ccc21 (configuration not stated) | i

Brought forward from above: three compounds, followed by the next part.
SMILES | FPR
O=C1C2C3C=CC(C3)C2C(=O)N1c1ccc(NCCc2cccc(F)c2)c([N+](=O)[O-])c1 (configuration not stated) | i
CC1(C)CC(=O)C2=C(C1)OC(N)=C(C#N)C2c1ccc(OC(=O)N2CCOCC2)cc1 (configuration not stated) | i
CC(=O)N1CCc2cc(S(=O)(=O)NC(C(=O)Nc3ccc(C)cc3)C(C)C)ccc21 (configuration not stated) | i
CCN(CC)CCCNC(=O)C1CCC(CNS(=O)(=O)c2c(C)cc(C)cc2C)CC1 (configuration not stated) | 4
COc1ccc(S(=O)(=O)NC(CC(=O)NCCc2ccc(OC)c(OC)c2)C(C)C)cc1 (configuration not stated) | i
COc1ccc(C2(CNC(=O)CCC(=O)O)CCCC2)cc1OC | i
Cc1ccc(C2C3=C(CC(C)(C)CC3=O)Nc3[nH]n(-c4ccccc4)c(=O)c32)cc1 (configuration not stated) | 66*
CCOc1ccc2c(c1)C(C)=CC(C)(C)N2C(=O)Nc1cccc(Cl)c1 | i
CCCCn1c(SCC(=O)NCCOC)nc2ccc(N3CCOCC3)cc2c1=O | i
CCCOC(=O)C1=C(C)NC2=C(C(=O)C(C(=O)OC)C(C)C2)C1c1cc(Cl)c(O)c(OCC)c1 (configuration not stated) | i
Cc1cc(NC(=O)C2CCCCC2C(=O)O)no1 (configuration not stated) | i
CC(C)Cn1cc(C(=O)NC(C)CCc2ccccc2)c2c3ccccc3n(C)c2c1=O (configuration not stated) | i
CC1CCN(S(=O)(=O)c2cc(S(=O)(=O)N3CCC(C)CC3)c3cccc4c3c2NC4=O)CC1 | i
Cc1ccc(CNC(=O)C2CCC(CNS(=O)(=O)c3cccs3)CC2)cc1 (configuration not stated) | 28
CCCN(CCC)CCNC(=O)c1cn(CC(C)C)c(=O)c2cc(OC)c(OC)cc12 | i

The list goes on, overlapping the part above by seven compounds.
SMILES | FPR
CCCCn1c(SCC(=O)NCCOC)nc2ccc(N3CCOCC3)cc2c1=O | i
CCCOC(=O)C1=C(C)NC2=C(C(=O)C(C(=O)OC)C(C)C2)C1c1cc(Cl)c(O)c(OCC)c1 (configuration not stated) | i
Cc1cc(NC(=O)C2CCCCC2C(=O)O)no1 (configuration not stated) | i
CC(C)Cn1cc(C(=O)NC(C)CCc2ccccc2)c2c3ccccc3n(C)c2c1=O (configuration not stated) | i
CC1CCN(S(=O)(=O)c2cc(S(=O)(=O)N3CCC(C)CC3)c3cccc4c3c2NC4=O)CC1 | i
Cc1ccc(CNC(=O)C2CCC(CNS(=O)(=O)c3cccs3)CC2)cc1 (configuration not stated) | 28
CCCN(CCC)CCNC(=O)c1cn(CC(C)C)c(=O)c2cc(OC)c(OC)cc12 | i
COc1cc(Br)c(OC)c(C2C(C(=O)OC3CCCCC3)=C(C)NC3=C2C(=O)CC(C)(C)C3)c1 (configuration not stated) | i
C=CCNC(=O)c1cc2c(=O)n3ccccc3nc2n(C2CCCC2)c1=N | i
CCOC(=O)C1C(=O)C=C(c2ccc(OC)c(OC)c2)CC1c1ccc(C)cc1 (configuration not stated) | i
CCC1CCc2c(sc(NC(=O)C3C4CCC(C4)C3C(=O)O)c2C(N)=O)C1 (configuration not stated) | 21
O=C(O)CCN1C(=O)C2C3C=CC(C2C1=O)C1C(=O)N(CCC(=O)O)C(=O)C31 (configuration not stated) | i
CCCOc1ccc(C2C(C#N)=C(N)OC3=C2C(=O)CC(C)(C)C3)cc1 (configuration not stated) | i
CC(C)C(NCCC(=O)c1ccc(Br)cc1)C(=O)O (configuration not stated) | i
CCC(C)OC(=O)C1=C(C)NC2=C(C(=O)C(C(=O)OC)C(C)C2)C1c1ccc(OC)cc1 (configuration not stated) | 6
COc1cc2c(C(=O)NCC3CCCO3)cn(CC(C)C)c(=O)c2cc1OC (configuration not stated) | i
COc1cc(C2C3=C(CC(C)(C)CC3=O)OC3=C2C(=O)CC(C)(C)C3)ccc1OC(=O)c1ccccc1Cl | 12
CCCOC(=O)C1=C(C)NC2=C(C(=O)C(C(=O)OC)C(C)C2)C1c1ccc(C)cc1 (configuration not stated) | 4
COC(=O)C1C(=O)C2=C(CC1C)NC(C)=C(C(=O)OC1CCCC1)C2c1ccc(C)o1 (configuration not stated) | 22
Cc1sc2ncn(CC(=O)NCc3cccs3)c(=O)c2c1S(=O)(=O)N1CCC(C)CC1 | 18
COc1ccc(N2C(=O)C3C4C=CC(C3C2=O)C2C3C(=O)N(c5ccc(OC)cc5)C(=O)C3C42)cc1 (configuration not stated) | i
O=C1C=C(NCC2CCCO2)C2(CCCCC2)O1 (configuration not stated) | i
CCOc1ccc2c(c1)C(C)=CC(C)(C)N2C(=O)C(C)N1C(=O)c2ccccc2C1=O (configuration not stated) | i
O=C1C2C3C=CC(C2C(=O)N1Cc1ccccc1)C1C2C(=O)N(Cc4ccccc4)C(=O)C2C31 (configuration not stated) | i
O=c1c(-c2cscn2)c(C(F)(F)F)oc2cc(O)ccc12 | i
CCCCSCCCNC(=O)C1CCC(CNS(=O)(=O)c2ccccc2)CC1 (configuration not stated) | i
COc1ccc(C2(CNC(=O)c3ccc(Br)o3)CCCC2)cc1OC | i
CCOc1ccc(C2C(C(=O)OC3CCCCC3)=C(C)NC3=C2C(=O)C(C(=O)OC)C(C)C3)cc1 (configuration not stated) | 3
COc1cc(C2C3=C(CC(C)(C)CC3=O)OC3=C2C(=O)CC(C)(C)C3)ccc1OC(=O)c1cccc(Cl)c1 | i
O=C(NCC1CCCO1)c1cccc(N2C(=O)C3C4CCC(C4)C3C2=O)c1 (configuration not stated) | 11
CCSCCOC(=O)C1=C(C)NC2=C(C(=O)C(C(=O)OC)C(C)C2)C1c1cccc(OC)c1OC (configuration not stated) | i
COc1cc(C2NC(=O)NC(C)=C2C(=O)OCC(C)C)cc(OC)c1OC (configuration not stated) | i
CC(=O)Oc1ccc(C2OC(=O)C(C)(C)C(=O)C23CCCCC3)cc1 (configuration not stated) | i
Cc1cc(C)cc(Oc2c(C(F)(F)F)oc3c(CN4CCCC4)c(O)ccc3c2=O)c1 | i
COc1ccc(C(=O)NCC2(c3ccc(OC)cc3)CCOCC2)cc1 | i
COc1ccc2c(c1)C(C)=CC(C)(C)N2C(=O)CSc1nnc(-c2ccc(C)cc2)o1 | i
CCOC(=O)C1=C(C(F)(F)F)Nc2ncnn2C1c1ccc(OC)cc1OC (configuration not stated) | i
CCOc1ccc(NC(=O)CSc2nc3ccccc3c(=O)n2CC2CCC(C(=O)NCCc3ccccc3)CC2)cc1 (configuration not stated) | i
COc1ccc(NC(=O)C(CC(C)C)NC(=O)C2CCCCC2)c(OC)c1 (configuration not stated) | 6
CC1CCCN(C(=O)c2cc3c(=O)[nH]c4ccccc4c3n2C)C1 (configuration not stated) | i
COc1ccc(NC(=O)N(C2CCCCC2)C(C)c2cccnc2)c(OC)c1 (configuration not stated) | i
COc1ccccc1N1CCN(C(=O)C2CCC(CNS(=O)(=O)c3ccc(C)cc3)CC2)CC1 (configuration not stated) | i
O=C(O)C1CC=CCC1C(=O)Nc1cccc(O)c1 (configuration not stated) | i

FPR: entries above that show a hit.
SMILES | FPR
Cc1ccc(C2C3=C(CC(C)(C)CC3=O)Nc3[nH]n(-c4ccccc4)c(=O)c32)cc1 (configuration not stated) | 66*

Next section.
SMILES | FPR
O=C(O)c1cccc(N2C(=O)C3C4C=CC(CC4)C3C2=O)c1 (configuration not stated) | i
CC1CCN(C(=O)C2c3ccccc3C(=O)N3CCc4ccccc4C23)CC1 (configuration not stated) | 2
CCSCCOC(=O)C1=C(C)NC2=C(C(=O)C(C(=O)OC)C(C)C2)C1c1cc(OC)ccc1OC (configuration not stated) | 27
CCCOc1ccc(C2C(C(=O)OC3CCCC3)=C(C)NC3=C2C(=O)C(C(=O)OC)C(C)C3)cc1 (configuration not stated) | 1
COc1ccc(Oc2c(C(F)(F)F)oc3cc(OC(C)C(=O)OCC(C)C)ccc3c2=O)cc1 (configuration not stated) | 14
CC1=C(C(=O)OC2CCCC2)C(c2ccc([N+](=O)[O-])cc2)NC(=O)N1C (configuration not stated) | 8
CCCOC(=O)C1=C(C)NC2=C(C(=O)C(C(=O)OC)C(C)C2)C1c1ccc(OCC)cc1 (configuration not stated) | 17
O=C(O)c1ccccc1NC(=O)C1CCCCC1C(=O)O (configuration not stated) | 16
CCOCCOC(=O)C(C)Oc1ccc2c(=O)c(Oc3cccc(C)c3)c(C(F)(F)F)oc2c1 (configuration not stated) | i
COC(=O)C(NC(C)=O)(Nc1sc2c(c1C#N)CCCC2)C(F)(F)F (configuration not stated) | i
CC(=Nc1cc(C(C)(C)C)cc(C(C)(C)C)c1O)C1=C(O)c2ccccc2C1=O | i
O=[N+]([O-])c1ccc2c(c1)C=C1CCCCC1(NCc1ccco1)O2 (configuration not stated) | i
COc1ccc(C2C(C(=O)N3CCCCC3)c3ccccc3C(=O)N2C)cc1 (configuration not stated) | i
COc1ccc(C2C(C(=O)OC3CCCC3)=C(C)NC3=C2C(=O)CC(C)(C)C3)c(OC)c1OC (configuration not stated) | 42
Cn1c2ccccc2c2c(C(=O)N3CCN(c4cccc(C(F)(F)F)c4)CC3)cn(C3CCCC3)c(=O)c21 | i
COc1ccc(C2NC(=O)NC(C)=C2C(=O)OC2CCCCC2)cc1OC (configuration not stated) | i
CCCOc1ccc(C2C(C(=O)OC(C)CC)=C(C)NC3=C2C(=O)C(C(=O)OC)C(C)C3)cc1 (configuration not stated) | i
CCOC(=O)C1CCC(CN(Cc2ccc(OC)cc2)S(=O)(=O)c2c(C)cc(C)cc2C)CC1 (configuration not stated) | i
C=C(C)CSC1=C(C#N)C2(CCCCC2)C(C#N)C(=O)N1 (configuration not stated) | i
CCc1ccc(CNC(=O)C2CCN(S(=O)(=O)N3CC(C)CC(C)C3)CC2)cc1 (configuration not stated) | i
O=C(O)C1CCC(CNS(=O)(=O)c2ccc(Br)s2)CC1 (configuration not stated) | i
CCCOCCOC(=O)C1=C(C)NC2=C(C(=O)C(C(=O)OC)C(C)C2)C1c1cccc(F)c1 (configuration not stated) | 6
CC(C)COC(=O)c1cccc(N2C(=O)C3C4CCC(C4)C3C2=O)c1 (configuration not stated) | i
CCN1CCN(Cc2c(O)ccc3c(=O)c(Oc4ccc(-c5ccccc5)cc4)c(C(F)(F)F)oc23)CC1 | i
COc1ccccc1NC(=O)CSc1nc2ccsc2c(=O)n1CCCCCC(=O)NCCc1ccccc1 | 0
O=C1NC(c2cccc([N+](=O)[O-])c2)C(C(=O)c2cccnc2)C(O)(C(F)(F)F)N1 (configuration not stated) | i
COc1cc([N+](=O)[O-])cc2c1NC(c1ccccc1Cl)C1CC=CC21 (configuration not stated) | i
